Compound activity: PubChem, several laboratories
Vif A3G: inhibitors of Vif binding to APOBEC3G peptide, primary screen, biochemical, TR-FRET, GST-Vif 1-94, biotin-A3G peptide, dose response retest (AID 1117319); TR-FRET GST-Vif / biotin-A3G peptide binding; higher % means a stronger effect; test concentration not given here; strong numbers were not always called active; one-dose inhibition, %; IC50 in µM for titrated hits; 260,000 tested, 0.57% active;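 active = above the screen mean plus three standard deviations and confirmed in dose response; inconclusive = results disagree or hit not tested in dose response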;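 also: Vif residues 1-94 fused to GST binding biotinylated APOBEC3G peptide 110-148; 0% = full assay without inhibitor and 100% = GST in place of GST-Vif; retest series ran down from 100 µM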
Bfl-1 A1 inh: caspase 3/7 activation in MEF A1-2A-BIM cells, primary screen, A1 inhibitor project, cell-based, luminescence, HTS | Caspase-Glo 3/7 luminescence, 3 h; percent of clofoctol response, vehicle zero | caspase activation, % (concentration not given with the values) | 330,000 tested, 0.066% active;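 active = over half of replicate activation scores above 10%, or exactly half above 10 with the replicate mean above 10; inconclusive = replicate mean below 10 yet half the replicates above 10; inactive = over half of replicates below 10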;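 also: wells of about 30 µL received 50 nL stock; many hits fall short of the cut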
HNF4A DNA FP: change in binding of human HNF4A to DNA, primary screen, biochemical, fluorescence polarization, FITC-DNA; Hepatocyte nuclear factor 4-alpha (Homo sapiens), P41235; 1 h; activity change, % at 10 µM; 360,000 tested, 0.3% active; AID 1224865, 2016; in the data active = activity change above about 30%, passing the limit was not always enough;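 also: controls were the assay level and a saturating level of protein; the project sought stronger binding though the title names inhibitors; some compounds called inactive have numbers as strong as hits; positive values seem to mean higher polarization but the record does not say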
Target sequence (P41235 whole entry, looked up): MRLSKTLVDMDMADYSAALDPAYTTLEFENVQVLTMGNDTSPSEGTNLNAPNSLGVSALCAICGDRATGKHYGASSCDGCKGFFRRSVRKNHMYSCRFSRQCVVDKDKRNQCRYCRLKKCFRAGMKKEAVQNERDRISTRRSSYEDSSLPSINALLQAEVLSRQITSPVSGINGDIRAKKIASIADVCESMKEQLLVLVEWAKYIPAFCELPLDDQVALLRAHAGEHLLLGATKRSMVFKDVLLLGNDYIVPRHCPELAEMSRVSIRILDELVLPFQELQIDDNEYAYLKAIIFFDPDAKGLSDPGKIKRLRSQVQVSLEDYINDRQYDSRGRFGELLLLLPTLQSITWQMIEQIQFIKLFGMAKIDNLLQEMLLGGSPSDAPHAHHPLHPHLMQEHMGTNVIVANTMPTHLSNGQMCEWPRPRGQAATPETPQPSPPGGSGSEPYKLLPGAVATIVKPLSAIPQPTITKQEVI
UCH37 DUB inh: inhibitors of human UCH37 deubiquitinase, primary screen, biochemical, Ub-AMC cleavage, fluorescence | 330,000 tested, 0.33% active | inhibition, % (no concentration beside the values) | Ubiquitin carboxyl-terminal hydrolase isozyme L5 (Homo sapiens), Q9Y5K5 | purified proteasome/UCH37 | AID 588478, 2011;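 active = mean of two replicates above 20%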;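 also: 0% = compound-free wells with enzyme and 100% = wells lacking proteasome; stock transfer was 100 nL into about 20 µL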
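Material: human UCH37 enzyme supplied as purified proteasome complex / Amount: 0.15 nM proteasome as dispensed / Buffer or medium: pH 7.4 Tris-HCl (50 mM) with ovalbumin, ATP-MgCl2, DTT / Times: preincubation 30 min, reaction 25 min, room temperature / Technique: AMC fluorescence from Ub-AMC cleavage, excitation 355 nm, emission 460 nm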
E coli growth: E. coli growth inhibition, primary screen, OD600 | AID 1053175, 2014 | Escherichia coli growth, 23 h; active compounds read low | 330,000 tested, 0.21% active | OD600 absorbance (no concentration beside the values);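 active = OD600 absorbance below the run mean of sample wells minus 3.6 SD, in any replicate, cut at about 0.56 in these data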;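 also: stock transfer was 300 nL into about 60 µL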
B2AR ag: beta2AR agonists driving receptor internalization, primary screen, cell-based, FAP fluorogen, flow cytometry. response, % (concentration not given with the values). AID 504454, 2011. Am2.2-beta2AR cells; reference of the scale not given here. Beta-2 adrenergic receptor (Homo sapiens), P07550. 340,000 tested, 0.43% active;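 active = response above a set limit, near 3 SD of response in nonfluorescent compounds, cut at about 42% in these data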;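 also: stock transfer was 100 nL into about 11 µL; a reference agonist was the positive control; negative values mostly stem from fluorescent compounds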
Target sequence (P07550 whole entry, looked up): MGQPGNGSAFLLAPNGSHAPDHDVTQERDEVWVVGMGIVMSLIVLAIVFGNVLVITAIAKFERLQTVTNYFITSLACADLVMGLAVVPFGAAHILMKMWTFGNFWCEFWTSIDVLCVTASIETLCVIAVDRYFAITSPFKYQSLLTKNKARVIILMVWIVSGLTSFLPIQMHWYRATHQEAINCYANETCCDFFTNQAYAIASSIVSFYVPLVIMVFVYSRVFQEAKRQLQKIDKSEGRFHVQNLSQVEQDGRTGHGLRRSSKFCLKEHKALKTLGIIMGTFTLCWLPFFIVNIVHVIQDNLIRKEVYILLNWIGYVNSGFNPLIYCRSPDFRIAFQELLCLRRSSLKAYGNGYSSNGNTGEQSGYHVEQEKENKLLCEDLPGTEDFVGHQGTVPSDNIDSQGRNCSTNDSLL
LANA-H2A inh: blockers of LANA interaction with H2A/H2B – biochemical, FP readout, HTS, primary screen; inhibition, % (test concentration not listed); 320,000 tested, 0.6% active; cell-free LANA-H2A/H2B peptide, fluorescence polarization; in the data active = inhibition mostly above about 10%, no sharp cut-off; inactive = mostly below about 6.7%;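 also: stock transfer was 7.5 nL into about 10 µL; 0% = median of vehicle wells and 100% = median of positive control wells; one replicate is shown; the record names a cut of 25% in any replicate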
An asterisk follows results filed as active; u = inconclusive; x = not tested or not shown.

SMILES	Vif A3G	Bfl-1 A1 inh	HNF4A DNA FP	UCH37 DUB inh	E coli growth	B2AR ag	LANA-H2A inh
COc1ccc(/C=C(\NC(=O)c2ccc(OCC(C)C)cc2)C(=O)OCc2ccco2)cc1	33µM*	-0.3	-3.6	4.3	0.69	-5	-1.5
COCc1nnc(NS(=O)(=O)c2ccc(Br)cc2)s1	-1%	-0.5	-4.4	3.1	0.69	0	-3.0
N#Cc1ccccc1S(=O)(=O)N1CCN(C(=O)Cc2n[nH]c(=O)c3ccccc23)CC1	-5%	2.4	3.1	3.1	0.66	-3	0.1
O=C(CNCCc1ccc(Cl)cc1)Nc1ccc(C(=O)N2CCCCC2)cc1	21%	0.6	1.4	2.8	0.62	5	-0.9
CC(=O)c1ccc(NC(=O)CCCN2C(=O)COc3ccc(C)cc32)cc1	x	1.3	2.8	-1.2	0.66	14	11
CCC(CC)c1nnc(NC(=O)CS(=O)(=O)Cc2ccccc2)s1	4%	1.1	1.6	-2.7	0.7	6	-0.4
CNS(=O)(=O)c1ccc(NC(=O)c2cc(-c3ccncc3)nc3ccc(Cl)cc23)cc1	x	1.0	2.0	-4.6	0.72	7	-0.4
COc1ccc(Oc2ccc(C(F)(F)F)cc2NC(=O)c2ccc(C)cc2)cc1	x	0.2	3.2	2.1	0.61	4	3.5
Cc1ccc(NCCC(=O)c2cccc([N+](=O)[O-])c2)c(C)c1	11%	0.7	3.4	1.5	0.67	2	7.5
COC(=O)CN1C(=S)N(c2ccc(F)cc2)C(=O)C1CC(=O)Nc1ccccc1 (stereo unspecified)	-2%	-0.4	1.6	1.3	0.72	-1	-4.3
Cc1nn(Cc2ccc(Cl)cc2Cl)c(C)c1NC(=O)CCl	u	-0.7	3.6	5.9	0.69	1	4.3
COc1ccc(CN2CCN(Cc3nc4ccccc4s3)CC2CCO)c(C)c1C (stereo unspecified)	x	-0.4	1.2	0.2	0.7	-3	2.6
Cc1ccc(NC(=O)c2ncn[nH]2)cc1	12%	-1.5	-0.6	3.8	0.71	3	1.4
Nc1cc(C(=O)OCC(=O)NNC(=O)c2ccccc2)ccc1Cl	x	0.0	-1.5	-13	0.68	4	-5.2
COc1ccc2cc(/C(C)=N/NC(=O)c3cc(-c4cccnc4)nc4ccccc34)ccc2c1	-4%	1.0	0.1	x	x	17	10
COc1ccc(-c2csc(NC(=O)C3CSC4(C)CCC(=O)N34)n2)cc1 (stereo unspecified)	-8%	0.2	-0.7	-0.1	0.68	2	x
Cn1cc(CNC(=O)/C=C/c2ccc(Cl)cc2)cn1	2%	-0.1	14	4.2	0.69	-2	-2.8
Cc1cc(Nc2ccc(C)c(C)c2)c2ccccc2n1	x	0.5	1.5	9.4	0.64	4	-0.1
CCCOc1ccc(C2NC(=O)NC2=O)cc1 (stereo unspecified)	15%	-0.4	1.6	1.8	0.73	-4	-3.9
Cc1ccc(C)c(NC(=O)c2cnc3n(c2=O)CCS3)c1	x	0.0	-1.4	-88	0.66	-5	0.4
Cc1cccc(NC(=O)CS(=O)(=O)c2cn(C)c3ccccc23)c1	-3%	0.0	4.9	2.5	0.7	-9	1.7
CC1(C)C=Cc2c(ccc(-c3coc4cc(O)ccc4c3=O)c2O)O1	x	-0.1	x	1.8	0.56	x	-3.2
Cc1nc2scc(-c3ccccc3)c2c(=O)n1/N=C/c1ccco1	76%	0.4	1.4	x	x	21	1.7
CCOC(=O)CNC(=O)c1cccs1	u	0.2	0.4	1.0	0.69	-8	0.0
CCOc1cc(NC(=S)NCC(C)C)c(OCC)cc1NC(=O)c1ccco1	-3%	0.1	-2.1	-22	0.69	-20	4.2
O=C(NCc1ccco1)/C(=C\c1cccs1)NC(=O)c1cccs1	4%	-0.4	2.1	2.1	0.65	6	5.2
Cc1cc(-c2csc(NC(=O)c3ccc(C#N)cc3)n2)c(C)n1Cc1ccco1	3.4µM*	-0.2	6.1	4.9	0.7	-2	2.7
Cc1nc(C)c(C(=O)N(c2ccccc2F)C(C(=O)NCC2CCCO2)c2ccccc2)s1 (stereo unspecified)	-2%	-0.1	-3.7	3.0	0.64	2	1.7
COc1cccc(-c2ncc3ccccc3c2COC(=O)c2cccc(Br)c2)c1	x	0.1	-2.5	1.7	0.72	-3	0.6
COc1ccc(NC(C)=O)cc1NC(=O)CSc1nnc(-c2ccc(F)cc2)n1N	24%	0.5	2.2	5.5	0.65	-5	0.3
Cc1cc(C(F)(F)F)nc(SCC(=O)Nc2ccccc2)n1	0%	0.9	-0.3	6.8	0.68	-13	0.5
COC1C=CC=C(C)C(=O)NC2=CC(=O)C(N)=C(CC(C)CC(OC)C(O)C(C)C=C(C)C1OC(N)=O)C2=O (stereo unspecified)	-12%	x	-0.9	x	x	-4	x
Cc1cc(C(=O)CSc2nnc(-c3ccco3)o2)c(C)n1C	x	-1.0	-4.7	2.7	0.65	-5	6.1
CCCc1cc(=O)oc2c(C)c(OCC(=O)N3CCC[C@@H]3C(=O)O)ccc12	x	-0.7	-7.0	-52	0.72	-5	-4.0
COc1ccc(NS(=O)(=O)c2ccc(NC(=S)NC(=O)c3cccc(F)c3)cc2)nn1	u	-6.2	1.1	x	x	1	2.6
O=C(O)COc1ccc(/C=N/NC(=O)COc2nsnc2N2CCOCC2)cc1	4%	0.4	-1.1	x	x	-2	-1.9
O=C(CCc1ccccc1Cl)Nc1cc(S(=O)(=O)N2CCOCC2)ccc1N1CCCC1	1%	x	3.8	-1.2	0.69	3	x
CCCOc1ccc(S(=O)(=O)NNC(=O)c2cc3ccccc3o2)cc1	x	-0.4	3.1	3.0	0.64	-11	-0.8
COc1cc(C(=O)NC(C)Cc2ccccn2)ccc1OC1CCN(C(C)=O)CC1 (stereo unspecified)	x	x	2.7	3.5	0.71	0	x
Cc1occc1C(=O)NCCc1cccc(Cl)c1	-2%	0.5	0.1	1.3	0.74	-24	-4.7
Oc1ccc(Nc2ncnc3c2oc2ccccc23)cc1	-4%	-1.3	8.3	x	x	-309	1.2
Cc1ccc(NC2CCCN(C(=O)CCCN3CCCCC3=O)C2)cc1C (stereo unspecified)	3%	0.6	1.4	-0.8	0.7	0	0.1
O=C(c1ccccc1)c1c(O)cc(-c2ccccc2)oc1=O	26%	-0.5	-7.3	8.9	0.72	8	1.6
Cc1nn(C)c(C)c1CN(Cc1nc(CCC(C)C)no1)C(C)C	12%	0.4	-2.6	-0.1	0.66	-1	2.2
O=C(c1cc(COc2ccc(F)cc2Cl)on1)N1CCSCC1	-7%	-0.4	0.1	-0.7	0.7	-3	-2.2
COc1ccc(C2(c3ccc(OC)cc3)NC(=O)N(CC(=O)NC3CCCC3)C2=O)cc1	-1%	0.6	0.1	-1.1	0.71	0	-7.1
c1ccc2[nH]c(CN3CCCCC3)nc2c1	4%	-0.1	-3.7	0.2	0.74	-4	-1.7
CC(C)CCNC(=O)c1onc(CSc2ccncc2)c1C(=O)NCCC(C)C	2%	-0.2	3.5	1.2	0.71	-9	2.7
C[C@@H]1CN([C@@H](C)CO)C(=O)c2cc(N(C)C)ccc2O[C@@H]1CN(C)S(C)(=O)=O	x	-0.4	0.3	-3.1	x	-1	0.5
Fc1cccc(Nc2ncnc3c2cnn3-c2ccccc2)c1	x	-0.6	-2.8	-8.2	0.71	2	6.7
Cc1ccc(CN2CCN(Cc3cnn(-c4ccc(F)cc4)c3)CC2CCO)o1 (stereo unspecified)	18%	-1.1	0.6	-2.4	0.7	0	4.3
COc1cccc(C(=O)NCC(=O)N/N=C/c2cn[nH]c2-c2ccccc2)c1	3%	u	-0.1	x	x	-4	0.1
O=C(O)c1cccc(OS(=O)(=O)c2cc(Br)ccc2Br)c1	-1%	0.5	-3.6	x	x	4	2.5
COc1ccc(C(=O)c2ccc(Br)cc2)cc1	5%	-0.4	0.4	1.4	0.71	-6	0.6
Cn1c2cc(C#N)sc2c2cnn(Cc3ccc(F)cc3)c(=O)c21	-2%	0.1	1.0	0.0	0.7	-7	x
O=C(c1cc(-c2ccc(O)cc2)on1)N1CCCCCC1	x	1.3	-0.6	3.0	0.69	-1	-2.6
Cc1ccc(SCC(=O)NCC2COc3ccccc3O2)cc1 (stereo unspecified)	3%	-0.4	4.7	5.5	0.72	2	-1.5
COc1ccc(OCc2cc(C(=O)N3CCN(C4CCCC4)CC3)no2)c(Cl)c1	x	-1.6	2.9	2.4	0.69	-5	2.6
Cc1ccc(NC(=O)C2CCCN(S(=O)(=O)c3c(C)noc3C)C2)cc1F (stereo unspecified)	2%	-0.1	0.5	4.3	0.69	8	2.6
O=S(=O)(/N=C(/Nc1cccnc1Cl)c1ccccc1)c1ccccc1	x	-0.5	1.3	-1.4	0.69	3	-2.4

Next part.
SMILES	Vif A3G	Bfl-1 A1 inh	HNF4A DNA FP	UCH37 DUB inh	E coli growth	B2AR ag	LANA-H2A inh
CN1C(=O)/C(=C/c2ccccc2OCc2ccc(F)cc2)N(C)C1=S	30%	0.1	-1.7	2.9	0.7	-1	6.7
O=C(/C=C/c1cccs1)Nc1sc2c(c1C(=O)O)CCCC2	x	-2.6	3.3	x	x	4	0.8
O=C(CSc1nnc(CCc2nc3ccccc3[nH]2)n1-c1ccccc1)NCc1ccccc1	x	0.3	-1.8	-1.2	0.73	-14	-5.5
Cc1cc(C)n(-c2cc(-c3ccccc3)nc(C)n2)n1	-3%	-0.2	1.6	1.9	0.72	1	5.7

Record cards (already shown). Order of values: Vif A3G, Bfl-1 A1 inh, HNF4A DNA FP, UCH37 DUB inh, E coli growth, B2AR ag, LANA-H2A inh
Record of O=C(/C=C/c1cccs1)Nc1sc2c(c1C(=O)O)CCCC2 → x, -2.6, 3.3, x, x, 4, 0.8
Record of Cc1cc(C)n(-c2cc(-c3ccccc3)nc(C)n2)n1 → -3%, -0.2, 1.6, 1.9, 0.72, 1, 5.7
